Biofilm kill mix: mixture kills Candida albicans biofilm cells | inhibition, % at 7.6 µM | 120,000 compounds, 0.02% hits | C. albicans biofilm persisters + clotrimazole, fluorescence viability; primary screen in compound mixtures of four per well;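 active = inhibition above 30.3% in the primary screen of four-compound pools, then above 30% when the compound was retested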;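 note: compounds exposed to preformed 24 h biofilms for 48 h; the number belongs to the whole pool; some results filed as inactive read as strong as hits; inactives centre near 12; 0% = biofilm with clotrimazole alone and 100% = kill control; retested singly at about 60 µM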
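Probe or stimulus – Clotrimazole 50 µg/mL co-treatment · System – C. albicans biofilms · Schedule – 24 h biofilm formation, then 48 h compound exposure, 37 °C · Evaluation – percent inhibition of biofilm viability · Technique – 2-h Alamar Blue fluorescence, 535/590 nm excitation/emission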
Starred values were filed as active, the others as inactive. An excerpt, so the mix of outcomes need not match the whole.

canonical_smiles,Biofilm kill mix
O=C(Nc1ccc(CSc2ccccc2)cc1)c1ccccc1,-1
O=C(Nc1ccccn1)C1COc2ccccc2O1 (configuration not stated),5
O=C(C1=C[C@H](c2ccccc2)C[C@H](OCCCCO)O1)N1CCN(Cc2ccc3c(c2)OCO3)CC1,13
Clc1ccc(CSc2nnc(-c3ccncc3)s2)cc1,15
CC(C)(/C=N/O)/[N+]([O-])=C/c1ccccc1,28
COc1ccc(Cl)cc1NC(=S)NNC(=O)c1cccs1,14
CCCOc1cccc(C(=O)NC(=S)Nc2ccc(N3CCN(C)CC3)cc2)c1,19
Cc1ccccc1N(C(=O)Cc1cccs1)C(C(=O)NC1CCCCC1)c1cn(C)nc1C (configuration not stated),11
O=C(Nc1nnc(C2=COCCO2)o1)c1ccc(Cl)cc1,19
Cc1c(NC(=O)CN2CCC(C(N)=O)CC2)cccc1[N+](=O)[O-],14

2 entries from above, reformatted.
> COc1ccc(Cl)cc1NC(=S)NNC(=O)c1cccs1
- Biofilm kill mix: 14
> CCCOc1cccc(C(=O)NC(=S)Nc2ccc(N3CCN(C)CC3)cc2)c1
- Biofilm kill mix: 19

(listing goes on)
canonical_smiles,Biofilm kill mix
CCCCCCNc1c([N+](=O)[O-])c(=O)sc2ccccc12,7
CCCOc1ccc(-c2cc(C(=O)NCC3CCCO3)c3ccccc3n2)cc1 (configuration not stated),10
CCOC(=O)c1c(N/N=C/c2ccncc2)n[nH]c1C,11
O=C(NC12CC3CC(CC(C3)C1)C2)c1ccc(-c2ccc(Br)cc2)o1,5
O=C(CCC1CCCN(C(=O)C2CCCC2)C1)NCc1ccc(F)c(F)c1 (configuration not stated),12
O=S(=O)(NCCN1CCOCC1)c1ccc(Cl)s1,6
CC(=O)Nc1cccc(NC(=O)COc2nncc3ccccc23)c1,9
O=C1/C(=C\c2ccc(O)c(O)c2)C(c2ccccc2)=NN1c1ccccc1,7
OCCC1CN(Cc2cn[nH]c2C2CCCCC2)CCN1C1CCCCC1 (configuration not stated),12
Cc1cc(-c2nn(-c3ccccc3F)cc2CNCCc2cnccn2)c(C)s1,8

An excerpt of these results, as labelled records.
mol: O=C(NC12CC3CC(CC(C3)C1)C2)c1ccc(-c2ccc(Br)cc2)o1
  Biofilm kill mix: 5

mol: O=C1/C(=C\c2ccc(O)c(O)c2)C(c2ccccc2)=NN1c1ccccc1
  Biofilm kill mix: 7

mol: OCCC1CN(Cc2cn[nH]c2C2CCCCC2)CCN1C1CCCCC1 (configuration not stated)
  Biofilm kill mix: 12

mol: O=S(=O)(NCCN1CCOCC1)c1ccc(Cl)s1
  Biofilm kill mix: 6

The listing continues.
canonical_smiles,Biofilm kill mix
CN(C)S(=O)(=O)N1CCN(c2ccc([N+](=O)[O-])c(N3CCCCC3)c2)CC1,6
COc1cccc(NC(=O)N2CCCC2C(=O)NCc2ccccc2)c1 (configuration not stated),3
CN(C)C(=S)SCCn1c(N)nc(N(C)C)nc1=O,19
CCc1ccccc1Nc1nc2ccccc2n1C(C)C,5
COc1ccc(CNC(=O)OCCN2CCN(S(=O)(=O)c3ccc(C)cc3)CCC2=O)cc1,15
CC(=O)Oc1ccc2ccc(=O)oc2c1,19
CCOC(=O)C1=C(CN2CCCCCC2)NC(=O)NC1c1ccc2c(c1)OCO2 (configuration not stated),1
O=C1C(=O)N(CCc2c[nH]c3ccccc23)C(c2cccnc2)/C1=C(/O)c1ccccc1 (configuration not stated),7
O=C(O)C1=C[C@H](c2ccc(F)cc2)C[C@H](OCCCCO)O1,15
O=C(N/N=C/C(Br)=C/c1ccccc1)c1cccs1,-1
Cc1nc(C)c(C(=O)NNS(=O)(=O)c2ccc([N+](=O)[O-])cc2)s1,5
Cc1cc(C)c(NC(=O)CN2C(=O)NC(CCc3ccccc3)C2=O)c(C)c1 (configuration not stated),12
COc1ccc(/C=N/S(=O)(=O)CCc2ccccc2)c(OC)c1,20
Cc1cc(Cl)ccc1C(=O)C1CCCN(C(=O)c2ccoc2)C1 (configuration not stated),12
CC1=C(C(=O)OCc2ccc3c(c2)OCO3)C(c2ccc(Cl)cc2)NC(=O)N1 (configuration not stated),11
Cc1[nH]n(-c2ccc(Cl)cc2)c(=O)c1C=NC12CN3CN(CN(C3)C1)C2,15
CCC(=O)Oc1ccc(C(=O)Nc2ccc3c(c2)OCO3)cc1,13
Cc1cc(=O)[nH]c(N/N=C/c2cc(C)n(-c3ccccc3)c2C)n1,1
Cc1c(Br)c(=O)oc2c(Br)c(O)ccc12,10
Cc1ccc(Oc2ncnc3sccc23)cc1,11

Four neighbouring records out of the list so far, for reference:
canonical_smiles,Biofilm kill mix
COc1ccc(/C=N/S(=O)(=O)CCc2ccccc2)c(OC)c1,20
Cc1cc(Cl)ccc1C(=O)C1CCCN(C(=O)c2ccoc2)C1 (configuration not stated),12
CC1=C(C(=O)OCc2ccc3c(c2)OCO3)C(c2ccc(Cl)cc2)NC(=O)N1 (configuration not stated),11
Cc1[nH]n(-c2ccc(Cl)cc2)c(=O)c1C=NC12CN3CN(CN(C3)C1)C2,15

Further entries
canonical_smiles,Biofilm kill mix
Cc1cc([N+](=O)[O-])nn1CC(=O)N1CCOCC1,12
Cc1ccc(NC(=S)Nc2cccc(S(=O)(=O)Nc3c(C)n(C)n(-c4ccccc4)c3=O)c2)cc1,-7
COc1ccc(NC(=S)Nc2ccc3nsnc3c2)cc1,12
CC1(C)C(CSc2nc3ccccc3[nH]2)C1(Cl)Cl (configuration not stated),15
C#CCOCCOCCOCCNc1nc(N2CCN(C(=O)[C@H]([C@@H](C)CC)n3cc([C@@H](N)CC(C)C)nn3)CC2)nc(N2CCN(C(=O)[C@H](Cc3cc4ccccc4[nH]3)n3cc([C@@H](N)Cc4ccc(O)cc4)nn3)CC2)n1,20
OC1(C(F)(F)F)CC(c2ccc3ccccc3c2)=NO1 (configuration not stated),18
Cc1cc2cc(CN(Cc3cccs3)C(=S)NCC3CCCO3)c(=O)[nH]c2cc1C (configuration not stated),13
Cc1cc(C)n2nc(S(=O)(=O)NC(C)(C)C)nc2n1,10
CCOc1ccc(N2C(=O)CC(NCCNc3ccc([N+](=O)[O-])cn3)C2=O)cc1 (configuration not stated),-9
Cc1ccnc(NC(=O)CCC(=O)N(CC(=O)NC2CCCCC2)C2CCCC2)c1,4
CC(C)Sc1nc2ccccc2n1CC(=O)O,7
CC(=O)N1CCN(Cc2nc3cc(NC(=O)NC4CCCCC4)ccc3n2C)CC1,13
S=c1nccc(-c2ccc(Cl)cc2)[nH]1,9
Cc1onc(-c2ccccc2)c1C1=N/C(=C\c2ccccc2F)C(=O)O1,3
CCN1C(=O)N[C@@H](CCc2ccccc2)[C@@H](C(=O)OC)[C@H]1C,19
COc1ccc(OCC(O)CN2CCN(c3ccccc3)CC2)cc1 (configuration not stated),25
Cc1ccccc1-n1c(-c2ccc3ccccc3n2)n[nH]c1=S,15
CCOC(=O)/C(N=Nc1c(C)n(C)n(-c2ccccc2)c1=O)=C(/O)c1ccccc1,-2
COc1ccc(-c2[nH]nc3c2C(c2ccoc2)C(C#N)=C(N)O3)cc1 (configuration not stated),6
COCCNC(=O)c1ccccc1NC(=O)CSc1ccc(C)cc1,6

Reprinted from the part before: 2 entries; new compounds follow.
compound	Biofilm kill mix
COc1ccc(-c2[nH]nc3c2C(c2ccoc2)C(C#N)=C(N)O3)cc1 (configuration not stated)	6
COCCNC(=O)c1ccccc1NC(=O)CSc1ccc(C)cc1	6
CCn1c(C)cs/c1=N\C(=S)Nc1ccccc1C	14
OCCNc1c2ccccc2nc2ccccc12	1
CSc1ccc(/C=C/c2cc(=O)c3ccccc3[nH]2)cc1	16
CC1(C)C=C(c2ccc(C=O)s2)CC(C)(C)N1C=O	-5
CCn1c2ccccc2c2cc(NC(=O)C(=O)NCC3CCCO3)ccc21 (configuration not stated)	29
O=C(Cc1c[nH]c2ccccc12)N/N=C/c1ccc(F)cc1	8
CCOC(=O)C1(Cc2ccccc2C(F)(F)F)CCN(C2CCN(C(C)=O)CC2)CC1	7
COc1ccccc1NC(=O)NCCC1=CCCCC1	7
CNC(=O)COC(=O)c1ccc(Cl)c(S(N)(=O)=O)c1	4
O=C(COc1ccccc1)N1CCN(c2ccccc2)CC1	13
CC(C)(C)OC(=O)NC(Cc1ccccc1)C(=O)NCCCC(=O)O (configuration not stated)	15
Cc1ccc(CNC(=O)C(=O)NCCCn2ccnc2)cc1	10
CC(=O)Nc1ccc(S(=O)(=O)Nc2nc3ccccc3nc2Nc2ccc3ccccc3c2)cc1	2
c1cc2c(cc1C1CCCCC1)c1c3n2CCN=C3CCC1	8
Cc1cccc(Cc2c(C)nc3nc(SCC(=O)O)nn3c2C)c1	14
Cc1ccccc1CNC(=O)CC1C(=O)NCCN1Cc1c(F)cccc1Cl (configuration not stated)	-15
CCN(CC)CCN(C)C1CCC(c2ccccc2)CC1 (configuration not stated)	3
O=c1c2ccccc2nc(/C=C/c2ccc(O)cc2)n1CCc1ccccc1	17
COc1cccc(OCC(=O)NNC(=O)Cc2cccs2)c1	14
COc1cc(/C=C2/NC(=O)N(c3cccc(Cl)c3)C2=O)ccc1O	17
O=[N+]([O-])c1cccnc1N1CCN(c2ccccc2F)CC1	-3
CC(C)(C)c1ccc(NC(=O)COC(=O)C2(C)CC2(Cl)Cl)cc1 (configuration not stated)	7
COc1ccc(/C=N/NC(=O)CN(C2=NS(=O)(=O)c3ccccc32)c2ccccc2)cc1OC	-1
O=c1/c(=C/c2ccc(O)cc2)sc2nc3cc(Br)cnc3n12	9
O=C(NCCCNc1ccc(C(F)(F)F)cc1[N+](=O)[O-])c1ccc(F)cc1	8
Cc1ccc(N2C(=O)C3CCC(c4ccccc4)CC3C2=O)cc1 (configuration not stated)	12
NS(=O)(=O)c1ccc(NC(=O)COc2ccc(C(=O)c3ccc(F)cc3)cc2)cc1	21
Cc1cc2nc(SCCOC(=O)Nc3cccc(Cl)c3)nc(C)c2cc1C	22
COCCNC(=O)CSc1cc(-c2ccccc2)c2ccc(OC)cc2n1	6
CCNc1nc(NCC)n2c(SC(C(=O)Nc3cc(C)ccc3C)c3ccccc3)nnc2n1 (configuration not stated)	4
CC(Sc1nncn1C)C(=O)Nc1cc(C(F)(F)F)ccc1N1CCOCC1 (configuration not stated)	6
CC1NC(C)(C)Cc2c1ccc1ccccc21 (configuration not stated)	17
COc1ccc(C(=O)Nc2ccc(C(F)(F)F)n(C)c2=O)cc1	16
O=C(C[n+]1cc(-c2ccccc2)n2c1CCC2)Nc1nc(-c2ccccc2)cs1	11
NC(=O)C1CCN(c2ccc(S(=O)(=O)N3CCCCC3)cn2)CC1	16
O=C(Cc1ccccc1)NS(=O)(=O)c1ccc(N=NN2CCOCC2)cc1	3
NC(=O)CN1CCOCCOCCN(CC(N)=O)CCOCCOCC1	6
CCN(CC)C(=O)C(=O)c1cc(C)n(-c2ccc(F)cc2)c1C	12
Cc1ccc(S(=O)(=O)NC2c3cccc4cccc(c34)C2Sc2n[nH]c(N)n2)cc1 (configuration not stated)	6
Cc1cccc(Oc2nc(CN3CCOCC3)nc3sc4c(c23)CCCC4)c1	8
O=C(N/N=C/c1cccc2ccccc12)c1n[nH]c2c1CCCC2	10
O=C(Nc1ccccn1)c1ccc2c(c1)S(=O)(=O)c1ccccc1C2=O	19
CCC1Oc2ccc(C)cc2N(CC(=O)NCc2ccco2)C1=O (configuration not stated)	27
CCOc1ccc(CC(=O)NNC(=S)NC2CCCCC2)cc1OCC	15
O=C(COc1ccc([N+](=O)[O-])cc1)Nc1ccncc1	12
C=CCNC(=O)COc1ccccc1C#N	8
O=C(N/N=C/C=C\c1ccccc1[N+](=O)[O-])c1ccco1	15
CCOC(=O)NN1C(=O)c2ccccc2NC1c1ccc(OC)c(OC)c1 (configuration not stated)	18
CCCCN(C)CCNC(=O)C(=O)c1c(C)[nH]c2ccccc12	12
c1ccc(-c2csc(-c3ccc(-c4csnn4)cc3)n2)cc1	6
N/C(Cc1nc(-c2ccc(F)cc2)cs1)=N\O	20
CCOC(=O)c1c(C)[nH]c(C(=O)/C(C#N)=C/c2ccc(OC)c(OC)c2)c1C	16
CC(C)(C)NC(=O)/C=C/c1cccc(C(F)(F)F)c1	6
CC1CN(C(=O)c2cccc(COc3ccc(Br)cc3)c2)CC(C)O1 (configuration not stated)	19
Cc1ccc([N+](=O)[O-])cc1N=Nc1c(-c2ccc([N+](=O)[O-])cc2)[nH]n(C(N)=S)c1=O	8
COc1ccc(/C(C)=N/NC(=O)CNC(=O)C2COc3ccccc3O2)c(OC)c1 (configuration not stated)	13
O=C(NCCc1ccccc1)C1CCN(Cc2ccccc2F)CC1	12
CCSc1ncc(C)cc1[N+](=O)[O-]	5
NC(=S)NC1CC2C=CC1C2 (configuration not stated)	16
Cc1ccc2c(c1)N(Cc1cccc(Cl)c1)C(=O)c1cccnc1O2	20

(list continues)
compound	Biofilm kill mix
CC(C)c1onc(C(=O)NCc2ccc(F)cc2)c1[N+](=O)[O-]	23
CCn1nc(C)c(/C=N/NC(=S)Nc2ccc(Cl)cc2Cl)c1C	7
C/C(CCc1ccc2c(c1)OCO2)=N\NC(=O)c1ccc(C)cc1C	4
COc1ccc(-c2[nH]ncc2CN(C)C(C)c2ccon2)c(OC)c1 (configuration not stated)	3
COc1ccc(CNC(=S)Nc2ccccc2-c2ccccc2)cc1	7
Cc1ccccc1Cn1c(=O)n(-c2ccccc2)c(=O)c2ccc(C(=O)NCc3ccco3)cc21	3
COC(=O)c1ccc(NC(=O)C2CC(=O)N(c3ccc(C)cc3)C2)cc1 (configuration not stated)	7
COC(=O)Cc1c(O)ccn(Cc2cccc(C(F)(F)F)c2)c1=O	12
CC(C)(CNS(=O)(=O)c1ccc2c(c1)OCCO2)N1CCOCC1	19

Screens as filed in PubChem BioAssay.
